Vaccinia mCherry: vaccinia inhibition (mCherry reporter) | Vaccinia virus mCherry reporter infection, fluorescence; about a quarter of the inactives have no number | hit rate 0.63% among 310,000 | Potency, µM (doses to about 36.5 µM), for inactives: at the top dose activity change, negative = inhibition, usual class: inhibitors; active = well fitted inhibition curve with a large enough effect; inconclusive = small, poorly fitted or top-dose-only effect; inactive = no such curve, though single readings can be large or run the other way; tested in A549 cells; also: nearly all actives have a fitted effect of over 35% in size; inactives centre near -10
VACV Venus inh: vaccinia inhibition (Venus reporter). Potency, µM (series often up to 36.5 µM), for the others: at the top dose activity change, negative = inhibition, most hits filed as inhibitors. AID 720580. Vaccinia virus Venus reporter expression, fluorescence. hit rate 0.46% among 330,000; active means well fitted inhibition curve with a large enough effect; inconclusive means small, poorly fitted or top-dose-only effect; inactive means no such curve, though single readings can be large or run the other way; tested in A549 cells; also: nearly all actives have a fitted effect of over 30% in size; inactives centre near -10
Numbers without * were called inactive; i = inactive; ? = inconclusive; · = not tested or not shown; [ ] = another dose, or the depositor's remark. % is scaled to controls: 0 for no effect and ±100 for the full control effect; potency is read from the fitted curve at half-maximal effect.

SMILES	Vaccinia mCherry	VACV Venus inh
O=C(c1cc2c([nH]c1=O)CCCC2)N1CCc2c([nH]c3ccccc23)C1c1ccccc1F (stereo not given)	-2%	-6%
Cc1ccc(S(=O)Cc2nc(-c3ccc(C(=O)NCc4cccc(C)c4)cc3)oc2C)cc1 (stereo not given)	-9%	-8%
CCN(CC)S(=O)(=O)c1cc(C(=O)c2nccn2C)ccc1Cl	5%	-10%
CCOc1ccc(NC(=O)CSc2nnc(C)n2CC)cc1	i	-10%
OC1(c2cccs2)CN(c2ccc(Cl)cc2)C2=[N+]1CCCC2 (stereo not given)	9%	1%
CC(C)c1ccc(/C=N/N2CCN(c3ccccn3)CC2)cc1	-4%	-4%
COCCNC(=O)C(c1cccnc1)N(Cc1ccc(C)cc1)C(=O)Cn1nnc2ccccc21 (stereo not given)	i	-6%
Cc1nn(Cc2ccccc2)c(C)c1C(=O)OCC(=O)Nc1cc(S(C)(=O)=O)ccc1Cl	-22%	-17%

SMILES	Vaccinia mCherry	VACV Venus inh
O=C(N/N=C/c1ccc(OC(F)F)cc1OC(F)F)NC1CCCCC1	-1%	-13%
COc1ccc(NC(=O)CSc2ccc(-c3cccs3)nn2)c(OC)c1	-20%	-17%
CC12CCC(=O)N1C(C(=O)Oc1cccc(F)c1)CS2 (stereo not given)	i	-4%
COc1cccc(-c2nnc(SCC(=O)N3CCCCC3)o2)c1	-6%	-3%
C/C(=N/NC(=O)c1ccncc1)C1=C(O)CC(C)(C)CC1=O	-13%	-3%
O=C1OCC(CO)(CO)N=C1NNc1ccc(Cl)c(Cl)c1	-2%	-6%
COc1ccc(OC)c(-c2nn(-c3ccccc3)cc2C(=O)NC2(C)CCS(=O)(=O)C2)c1 (stereo not given)	i	-12%
Cc1cccc(NC(=O)Cn2cc(C(=O)c3ccco3)c3ccccc32)c1	-18%	?

In a second layout: entries from further up
Results follow in this order: Vaccinia mCherry	VACV Venus inh
COc1cccc(-c2nnc(SCC(=O)N3CCCCC3)o2)c1
→ -6%	-3%
C/C(=N/NC(=O)c1ccncc1)C1=C(O)CC(C)(C)CC1=O
→ -13%	-3%
O=C1OCC(CO)(CO)N=C1NNc1ccc(Cl)c(Cl)c1
→ -2%	-6%

(further entries)
SMILES	Vaccinia mCherry	VACV Venus inh
COc1ccc(Cl)cc1NC(=O)CN(C)C(=O)CN1C(=O)NC(C)(C)C1=O	i	-8%
CC(C)(C)C1CCc2nc(NC(=O)c3ccc([N+](=O)[O-])cc3)sc2C1 (stereo not given)	-16%	-2%
CCCCn1nnc(NC(=O)c2sc3cc(Cl)ccc3c2Cl)n1	·	-20%
C/C(=N\Nc1ncc(Cl)cc1Cl)c1ccc(C#N)cc1	-3%	-29%
Cc1ccc(OCC(=O)N/N=C\c2ccc(O)cc2)c([N+](=O)[O-])c1	3%	-3%
O=C(Cc1ccc(F)cc1)Nc1ccc(S(=O)(=O)N2CCCC2)cc1	-15%	6%
COc1ccc(N2CCN(c3ncnc4c3nnn4C)CC2)cc1	-6%	-19%
O=C(C[C@@H]1C/C=C\C[C@H](NC(=O)OCC2c3ccccc3-c3ccccc32)C(=O)OC[C@@H]2CCCN2C1=O)N[C@H](CO)Cc1ccccc1	-18%	-4%

SMILES	Vaccinia mCherry	VACV Venus inh
COc1ccc(C2N=C(N)Nc3nc4ccccc4n32)cc1 (stereo not given)	i	-7%
COc1cc(/C=N/NC(=O)c2cccnc2)ccc1OC(=O)c1cc(OC)c(OC)c(OC)c1	i	-14%
CSc1ccc(C(=O)NCC(c2ccco2)N(C)C)cc1[N+](=O)[O-] (stereo not given)	-1%	6%
COc1ccc(OC)c(S(=O)(=O)N(C)CC(=O)Nc2cc(Cl)ccc2OC)c1	·	-21%
Cc1ccc(C)n1-c1nnc(N2CCC(C(=O)Nc3ccccc3Br)CC2)s1	-10%	-12%
O=C(c1ccccc1-c1ccccc1)N1CCCC1	-15%	-16%
O=C(/C=C/Nc1ccc(Oc2ccccc2Cl)cc1)c1ccco1	-21%	-24%
C=CCN(Cc1nc(-c2ccccc2)no1)C(=O)c1ccc2c(c1)OCO2	-19%	-4%

SMILES	Vaccinia mCherry	VACV Venus inh
CC1CC(C)CN(C(=S)Nc2ccc(OC(F)F)cc2)C1 (stereo not given)	i	-4%
CC1CN(S(=O)(=O)c2cccc(C(=O)N=c3sccn3C)c2)CC(C)O1 (stereo not given)	-16%	-15%
CCCSC1=N/C(=C\c2ccc([N+](=O)[O-])o2)C(=O)S1	i	4%
CC1CCN(S(=O)(=O)c2csc(C(=O)Nc3ccccc3)c2)CC1	-13%	?
Cc1ccc2c(c1)cc(CN(Cc1ccc3c(c1)OCO3)C(=O)c1ccccc1)c1nnnn12	-12%	-14%
CC(C)Cc1nc2oc3c(Cl)ncnc3c2c2c1CCCC2	i[7.34 µM]	-7%[7.34 µM]
Cc1nc2ncnn2c(N2CCN(S(=O)(=O)c3ccc(Br)cc3)CC2)c1C	-8%	-6%
COc1ccc(CCNC(=O)Cn2c(=O)nc(-c3ccccc3F)c3cc(Cl)ccc32)cc1OC	i	-4%

Whole records, quoted from the list. Values in the order: Vaccinia mCherry | VACV Venus inh
Shown for `CC1CCN(S(=O)(=O)c2csc(C(=O)Nc3ccccc3)c2)CC1` : -13% | ?
Shown for `COc1ccc(CCNC(=O)Cn2c(=O)nc(-c3ccccc3F)c3cc(Cl)ccc32)cc1OC` : i | -4%
Shown for `Cc1nc2ncnn2c(N2CCN(S(=O)(=O)c3ccc(Br)cc3)CC2)c1C` : -8% | -6%

Later entries.
SMILES	Vaccinia mCherry	VACV Venus inh
CC(C)(C)c1cc(C(=O)NC2CC2)n(Cc2ccc(F)cc2)n1	-25%	-11%
Cc1ccc(NC(=O)CSc2ccc(-c3ccc4c(c3)OCO4)nn2)cc1F	-8%	-8%
CCc1ccc(NC(=O)Nc2ccccc2OCc2cc(=O)n3ccccc3n2)cc1	i	-11%
Cc1cc(NC(=O)CSc2nc(-c3ccc(Br)cc3)nc3c2c(=O)n(C)c(=O)n3C)no1	i	-9%
Cn1ccc2cc(S(=O)(=O)N3CCCC(C(=O)NCc4ccc(F)cc4)C3)ccc21 (stereo not given)	-17%	-5%
COC(=O)C(C)N(c1ccc(OC)cc1)S(C)(=O)=O (stereo not given)	4%	-2%
COC(=O)c1ccc(N2CCN(c3ccccc3)CC2)c(NC(=O)C2CC2)c1	-9%	-8%
NCCCC(N)(C(=O)O)C(F)F (stereo not given)	i	-10%

Grouped by structure, those above containing bromine (3)
SMILES	Vaccinia mCherry	VACV Venus inh
Cc1ccc(C)n1-c1nnc(N2CCC(C(=O)Nc3ccccc3Br)CC2)s1	-10%	-12%
Cc1nc2ncnn2c(N2CCN(S(=O)(=O)c3ccc(Br)cc3)CC2)c1C	-8%	-6%
Cc1cc(NC(=O)CSc2nc(-c3ccc(Br)cc3)nc3c2c(=O)n(C)c(=O)n3C)no1	i	-9%

The results go on:
SMILES	Vaccinia mCherry	VACV Venus inh
CCCn1cnnc1CNC(=O)[C@H]1O[C@@H](n2ccc(N)nc2=O)[C@H](O)[C@@H]1O	3%	4%
CCc1nc2ccccc2n(CCOCCn2c(=O)c(CC)nc3ccccc32)c1=O	-23%	-10%
Cc1ccc(C)c(N2CCN(C(c3ccccc3)c3nnc(-c4ccccc4)o3)CC2)c1 (stereo not given)	-9%	-5%
COc1cccc(SCC(=O)N2CCN(c3ccccc3)CC2)c1	-4%	1%
CCCCOc1ccc(N2C(=O)C(C)CNC2=S)cc1 (stereo not given)	-12%	2%
Cc1ccc(NC(=O)c2cnc(SCC(=O)c3ccccc3)n(C)c2=O)cc1	-7%	-5%
Cc1cccc(-c2nc(CCNC(=O)Cc3ccccc3)cs2)c1	-1%	-9%
CCOc1ccc(CCN2C(=O)C(=O)N([C@@H](Cc3ccc(O)cc3)CN3CCC[C@H]3CN3C(=O)C(=O)NC[C@@H]3Cc3ccc(O)cc3)C[C@@H]2Cc2ccccc2)cc1	-10%	-8%

SMILES	Vaccinia mCherry	VACV Venus inh
COc1ccccc1-c1noc(-c2ccc(NCc3ccco3)c([N+](=O)[O-])c2)n1	-4%	-2%
C=CCn1c(Cc2ccc(OC)cc2)nnc1SCC(=O)c1cccc([N+](=O)[O-])c1	i	-10%
CSc1ccc(-c2nnn(Cc3ccccn3)n2)cc1	·	?
CCn1c(-c2ccccc2)c(C(=O)O)c2ccccc21	·	-14%
CCCn1c2ccccc2c2nnc(SCC(=O)OCC)nc21	·	-9%
CN(CC(=O)Nc1ccc(F)cc1)CC(=O)N1CCc2ccccc21	?	-17%
COc1ccc(C(=O)N2CCN(S(=O)(=O)c3ccc(F)cc3)CC2)cc1OC	i	-12%
O=C1NC[C@H](Cc2ccc(O)cc2)N(CCc2cccc(F)c2)C1=O	-8%	-11%

SMILES	Vaccinia mCherry	VACV Venus inh
CCCCNC(=O)c1ccc(CS(=O)(=O)c2ccc(C)cc2)o1	-11%	-4%
Cn1cccc1CC(=O)N/N=C/c1cccc2ccccc12	-8%	-20%
CCOC(=O)c1[nH]c2ccccc2c1NC(=S)Nc1ccccc1	-15%	-9%
Cc1ccc(S(=O)(=O)N(C)/N=C/C=C/c2ccccc2)cc1	-5%	-7%
COc1ccc(CN2CCN(CC=C(C)C)C(CCO)C2)cc1Cn1cncn1 (stereo not given)	-6%	-12%
CCN(CC)CCN(C(=O)c1ccc(C(=O)c2ccccc2)cc1)c1nc2cc3c(cc2s1)OCO3	?	-6%
CCc1nc2c(OCc3ccc(C#N)cc3)cccn2c1N(C)C(=O)c1ccco1	i	0%
Cc1ncc2c(c1CNC(=O)/C=C/c1cccs1)CCN(C(=O)c1cc(C(C)C)on1)C2	-1%	6%

canonical_smiles | Vaccinia mCherry | VACV Venus inh
O=C(Cn1nc(Cc2cccnc2)c2ccccc2c1=O)N1CCN(C(=O)c2ccco2)CC1 | -5% | 6%
Cc1cccc(C)c1-n1c(C)cc(/C=N\NC(=O)CC(=O)NC2CCCCC2)c1C | -18% | -7%
CC1(C)O[C@@H]2[C@H](O1)[C@@H](COS(=O)(=O)O)O[C@H]2n1ccc(=O)[nH]c1=O | -5% | -4%
Cn1cc(S(=O)(=O)N2CCCCCC2)cc1C(=O)Nc1ccccc1F | 0% | -14%
CCc1ccccc1NC(=O)CN(c1ccccc1)S(=O)(=O)c1ccsc1C(=O)OC | -11% | -4%
CN(C(=O)c1cccc(NC(=O)Cc2ccc(NC(=O)C3CCCN(C(=O)CCc4ccccc4)C3)cc2)c1)C1CCCC1 (stereo not given) | 16µM* | ?
O=C(CSCC(=O)N1CCOCC1)Nc1nc(-c2ccc3c(c2)OCO3)cs1 | ? | 8.9µM*
CCOC(=O)c1[nH]c2ccccc2c1N=CN(C)C | -13%[1.46 µM] | -1%
COc1ccc(C(C#N)N2CCOCC2)cc1 (stereo not given) | -3% | -1%
O=C(c1c(F)cccc1Cl)N1CCN(c2ccccn2)CC1 | -6% | -4%
COc1ccc(NC(=O)C2CC(=O)N(CCc3ccc(F)cc3)C2)c(OC)c1 (stereo not given) | i | -3%
O=C(O)/C=C/C(=O)Nc1ccc(SC(F)(F)F)cc1 | -6% | -3%
Cc1nn(C)c(C(=O)NC2C3CC4CC(C3)CC2C4)c1Cl (stereo not given) | -7% | -2%
O=C(CSc1ccc2nnc(-c3ccccn3)n2n1)Nc1cccc(F)c1 | -2% | -19%
CNC(=O)COc1coc(CN2CCN(c3ccccc3F)CC2)cc1=O | -19% | -4%
O=C(N/N=C/c1ccccc1OC(F)F)NC1CCCCC1 | 10% | -3%
Cc1ccc(NC(=O)c2ncn(CC(=O)NCC(C)c3ccccc3)n2)cc1C (stereo not given) | i | -7%
S=c1nc(-c2cc(Cl)cc(Cl)c2)[nH][nH]1 | i | -15%
Cc1ccc2c(c1)N(C(=O)N1CCC(C(=O)NC3CCCCCC3)CC1)CC(C)O2 (stereo not given) | -13% | -8%
Cc1noc(C)c1C(=O)NC(Cc1c[nH]c2ccccc12)C(=O)O (stereo not given) | -26% | 1%
CCn1c2ccccc2c2nc3cc(OC)c(OC)cc3nc21 | -16% | -16%
CCCCC(=O)N/N=C/c1c(O)n(CCc2ccccc2)c(=O)[nH]c1=O | -7% | 4%
Cc1ccc(CNC(=O)c2oc3ccc(S(=O)(=O)N4CCCC(C)C4)cc3c2C)cc1 (stereo not given) | -14% | -24%
Cn1c(OCc2ccco2)nc2c1c(=O)n(Cc1ccc(Cl)c(Cl)c1)c(=O)n2C | -27% | -20%
COc1ccc(C(C#N)C2(C)OCCO2)cc1OC (stereo not given) | -3% | 0%

canonical_smiles | Vaccinia mCherry | VACV Venus inh
Cc1nc2cc(-n3ccc(=O)cc3)ccc2n1-c1ccccc1 | i | 0%
CC(C)c1cc(N2CCOCC2)n2ncc(-c3ccccc3)c2n1 | ? | -21%
CCC(Oc1ccc(F)cc1)C(=O)Nc1c(C(=O)c2ccc(C)cc2)oc2ccccc12 (stereo not given) | -7% | -8%
COC(=O)C1=C(C)NC(C)=C(C(=O)OC)C1c1cc2cc(C)ccc2[nH]c1=O | -13% | -13%
CC(CCc1ccccc1)NS(=O)(=O)c1ccccc1F (stereo not given) | -5% | -3%
COc1ccc(NS(=O)(=O)c2cccc(NC(=O)CCC(=O)c3cccs3)c2)cc1 | -10% | -5%
CC(=O)Nc1ccc(Nc2cc(C)nc3c(-c4ccc(Cl)cc4)cnn23)cc1 | ? | -23%
CC(C)Oc1cc(NC(=O)CS(=O)CC(=O)N(C)C)c(Cl)cc1Cl (stereo not given) | i | -10%

High-throughput results (PubChem)
